Compound activity: PubChem, ICCB-Longwood Screening Facility, Harvard Medical School
Ba CapD inh = Bacillus anthracis CapD inhibitors, primary screen, biochemical, fluorescence intensity; CapD gamma-glutamyltranspeptidase (Bacillus anthracis Ames Ancestor); purified CapD enzyme, fluorescence intensity read-out; stronger effect = lower value; some hits fall short of the stated cut; z-score (concentration not given with the values); 0.23% of 140,000 active; AID 492967, 2010;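 active = z-score under -4 in either of two replicates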;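 also: stock transfer was 100 nL into about 40 µL; score is relative to mean and spread of the plate; one replicate is shown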
AID504770 = growth inhibition of E. coli YBA685, primary screen, V. cholerae RctB inhibitors; E. coli YBA685 rctB-dependent plasmid, OD600 growth, 3 h; stronger effect = lower value; z-score (concentration not given with the values); 0.27% of 130,000 active; AID 504770, 2011;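 active = z-score under -2 on both plates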;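 also: wells of about 30 µL received 100 nL stock; score is relative to mean and SD of the test wells; the first replicate is given; strong numbers were not always called active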
Numbers without * were called inactive; · = no result given.

SMILES	Ba CapD inh	AID504770
O=C(NCCn1ccc2ccccc21)c1ccccc1	-0.1	1.15
CCOC(=O)Cn1cc(C#N)c2ccccc21	·	-0.15
CCCCn1c(=O)c(C(=O)Nc2nc3ccc(C)cc3s2)c(O)c2ccccc21	-1.05	·
CC(O)c1nc2ccc(Cl)cc2[nH]1 (stereo not given)	1.3	-0.15
COc1ccc(NC(=O)c2ccc(COc3ccc(C(C)C)cc3)o2)cc1	0.44	2.5
CC(C)NC(=O)CSc1nc2ccccc2s1	·	1.8
COc1ccccc1C(=O)OCC1CCCN2CCCCC12 (stereo not given)	0.105	0.35
CC(Sc1nc2c(cc1C#N)CCCCC2)C(=O)O (stereo not given)	0.45	1.6
CCOC(=O)c1c(-c2ccccc2)oc2ccc(OCC(=O)OCc3ccccc3)cc12	25.8	·
NNC(=O)c1cc2c(s1)CCCCC2	·	-0.75
O=C1CCCN2N=C(SCC(=O)NCc3ccccc3)SC2=N1	-0.635	-0.85
CCOC(=O)c1c[nH]c2c(F)cccc2c1=O	0.72	·
O=C(C1CC(=O)N(c2ccc3c(c2)OCCO3)C1)N1CCN(c2ccccc2)CC1 (stereo not given)	·	-0.95
Cc1c(Cl)cn2c(=O)cc(CN3CCN(Cc4ccc5c(c4)OCO5)CC3)nc2c1Cl	·	-0.05
CCCSc1nnc(N)s1	10.7	-0.55
O=C(C1CC(O)CN1S(=O)(=O)c1ccc2ccccc2c1)N1CCc2ccccc2C1 (stereo not given)	·	-0.1
Cc1ccc(C)n1-c1ccc(Br)cc1	-0.27	·
O=C(OC(C(=O)NCC1CCCO1)c1ccc(F)cc1)c1ccco1 (stereo not given)	·	0.1
O=c1[nH]c2ccccc2n1CCCSc1nnc(C2CCCCC2)o1	·	-0.65
COc1cccc(C(C(=O)NCC2CCCO2)N(CC2CCCO2)C(=O)CC2C(=O)c3ccccc3S2(=O)=O)c1 (stereo not given)	·	-0.75
COc1cc(OC)nc(-c2cccc(NC(=O)c3ccc(C(C)(C)C)cc3)c2)n1	-0.435	·
CC1=Cc2cc([N+](=O)[O-])ccc2OC12C=Cc1c(ccc3ccccc13)O2 (stereo not given)	-0.28	·
O=C(NCCn1ccc2ccccc21)c1cccc2ccccc12	0.43	-0.7
CN(Cc1ccccc1)S(=O)(=O)c1ccc(N2CCCCS2(=O)=O)cc1	4.8	-0.3
CC(=O)NN=C1CCC(C(C)(C)C)CC1 (stereo not given)	·	0.1
CCn1c(N)nc2c1c(=O)[nH]c(=O)n2C	-0.095	-0.85
Cc1nn(CCCC(=O)NCCc2ccccc2)c(=O)c2cc3sccc3n12	-0.94	-1.65
Clc1ccc(OCc2cn3cccnc3n2)cc1	·	-0.95
COc1ccc(CN2C(=O)NC(=O)/C(=C\c3cccc(OC)c3OC)C2=O)cc1	-0.725	·
COc1ccc(C(=O)CSc2nc3ccccc3c(=O)[nH]2)cc1OC	-0.175	·
CC1CCC(C(C)C)C(OC(=O)COC(=O)c2cc(=O)[nH]c(=O)[nH]2)C1 (stereo not given)	·	0.85
Cc1cc(C(=O)NCC(O)c2ccc(O)cc2)nn1C (stereo not given)	-0.705	·
CCC(=O)N=c1sc2cc(OC)c(OC)cc2n1CCOC	·	1.15
Cc1nc(O)c([N+](=O)[O-])c(=O)[nH]1	-1.02	·
COC(=O)Cn1nnnc1-c1ccc(Cl)cc1	-0.43	0.35
COc1ccccc1NC(=O)CC(c1ccccc1)c1ccc(C)cc1O (stereo not given)	5.8	-0.15
O=C(/C=C/c1cccs1)N1CCCCC1c1nc2ccccc2s1 (stereo not given)	·	-0.8
COc1cc2c3c(c1OC)-c1cc(OC(C)=O)ccc1CC3N(C(C)=O)CC2 (stereo not given)	-0.715	-0.05
Cc1ncc(CSc2nc3ccc(C(F)(F)F)cc3[nH]2)c(CO)c1O	5.88	-1.2
CCc1ccc(NC(=O)Cn2c(=O)oc3ccccc32)cc1	-0.085	0.65
O=C(COC(=O)C1CCCN1C1=NS(=O)(=O)c2ccccc21)Nc1ccc(F)cc1 (stereo not given)	·	0.7
CCN(C(=O)CSc1nc2ccccc2c(=O)n1CC1CCCO1)c1cccc(C)c1 (stereo not given)	-0.135	-0.25
Nc1nc(CSC2CCS(=O)(=O)C2)nc(NCCc2ccccc2)n1 (stereo not given)	·	-0.15
CCC(=O)Nc1ccc(-c2nc3cccnc3s2)cc1	-0.115	1.65
O=C(c1cnc2ccccn12)C(F)(F)SCc1c(Cl)cccc1Cl	-0.6	-0.95
CCn1c2ccccc2c2nnc(SCC(=O)NCc3ccco3)nc21	-0.575	-0.25
COc1ccc(C(C#N)c2ccc(C(=O)c3ccc(F)cc3)cc2)cc1 (stereo not given)	-0.885	0.15
O=c1n(CC(O)CN2CCCCC2)c(=O)n(CC(O)CN2CCCCC2)c(=O)n1CC(O)CN1CCCCC1 (stereo not given)	0.195	-0.5
Cn1c(N/C(=C\C(=O)c2cccs2)C(F)(F)F)nc2ccccc21	-1.86	-2.7*
CSc1ccc(NC(=O)N(Cc2ccccc2)C(=O)CC#N)cc1	0.98	-1.15
COc1ccc(C(=O)NNC(=O)C2CCN(c3ccc(C(F)(F)F)cn3)CC2)cc1	3.11	·
COc1cccc(CNCCc2c[nH]c3ccccc23)c1O	-0.1	-0.05
COc1ccccc1C(C)NC(=O)c1ccc2nc[nH]c2c1 (stereo not given)	·	-0.3
O=C(NCCN1CCOCC1)N1CCNC1=O	·	-0.8
CC(CN1CCNCC1)(NS(=O)(=O)c1ccccc1)c1ccccc1 (stereo not given)	-0.13	1.45
O=C(O)c1ccc(CN2CCS(=O)(=O)CC2)cc1	0.38	-1.4
O=C(NCc1ccc2c(c1)CCO2)OCCN1CCN(Cc2ccccc2OCc2ccccc2)CC1	0.09	·
COc1ccc(Oc2nc(C)cc(C)c2C#N)cc1	1.88	-0.4
Cc1oc(-c2ccc(Cl)cc2)nc1CS(=O)CC(=O)NCCN1CCCC1 (stereo not given)	0.515	0.2
Cc1ccccc1NC(=O)C(C)Sc1nnc(-c2ccccc2C)o1 (stereo not given)	·	0.15
Later entries:
SMILES	Ba CapD inh	AID504770
CN(C)c1nc(OCCOC(=O)Nc2ccccc2)nc(N(C)C)n1	-0.295	·
O=C(Nc1ccc2c(c1)OCCO2)N1C=CC(C(F)(F)F)=NCC1	-1.75	1.35
CCSc1nc(C)nc(N)n1	-0.48	-0.5
O=C1CNC(=O)N1Cc1ccc(F)cc1	·	1.6
CS(=O)(=O)c1ccccc1C(=O)Nc1ccc2sccc2c1	·	1.75
CCc1nn(CC(=O)NCc2cc(Br)ccc2OC)c(=O)c2cc3sc(C)cc3n12	-0.895	-0.15
O=C1CCCN1CCCNC(=S)Nc1ccc(Nc2ccccc2)cc1	-0.73	-1.05
O=C(CSc1cnccc1C(F)(F)F)NCCc1ccccc1	0.295	·
C=CCOC(=O)C1=C(C)OC(N)=C(C#N)C1c1ccc(F)cc1 (stereo not given)	0.225	·
COc1ccc(NC(=O)C2CC(=O)N(C)C(=Nc3ccc(Br)cc3)S2)cc1 (stereo not given)	-0.37	·
COc1ccc(N2CCN(C(=O)C3CCN(C(=O)c4cc5sccc5n4C)CC3)CC2)cc1	0.415	0.4
COc1ccc(-c2cccc(NC(=O)C(F)(F)F)c2)nn1	·	-0.5
Sc1ccc2ccccc2c1	·	-1.8
CC12CCC(=O)C=C1CCC1C2[C@@H](O)CC2(C)C1CC[C@]2(O)C(=O)COP(=O)(O)O (stereo not given in full)	-0.285	·
O=[N+]([O-])c1ccc(-c2nc(Nc3cccc([N+](=O)[O-])c3)c3ccccc3n2)cc1	0.09	·
FC(F)(F)c1cnc(/C(=N/Nc2ccccc2)c2cccnc2)c(Cl)c1	-1.32	·
CCOC(=O)c1cncc(C#CCOC(=O)c2ccc(Cl)cc2)c1	-0.155	-0.35
CC1CCN(C(=O)COC(=O)c2ccc(Br)o2)CC1	-0.95	-0.35
O=C1C=CC(=O)N1c1ccccc1Sc1ccccc1	0.155	-0.6
Cc1c(-c2ccnn2C(=O)c2cccs2)cnn1-c1ccccc1	0.265	-0.75
CC(C)(C)c1ccc(O)c(NC(=O)OCCCc2ccccc2)c1	-0.075	·
Cn1c2c(c3ccccc31)C(C)(C)Cc1c-2cnn1-c1ccccc1	0.98	-0.2
COc1ccccc1-n1c(C)nc(=O)c(-c2ccccc2)c1C	-0.42	-0.95
O=c1ccc2cc(O[C@@H]3O[C@H](CO)[C@@H](O)[C@H](O)[C@H]3O)c(O)cc2o1	-0.625	0.1
COc1ccc(Cl)cc1N(CC(=O)N1CCC(C)CC1)S(=O)(=O)c1ccc(C)c([N+](=O)[O-])c1	-1.51	·
COc1cc(=O)[nH]c(SCC(=O)Nc2ccc(Br)cn2)n1	·	-1.35
CC(C)(C)n1ncc(C(=O)O)c1C(F)(F)F	-0.005	1.3
CCC(=O)N(c1nnc(SC(C)C(=O)c2ccc(NS(C)(=O)=O)cc2)s1)C1CC1 (stereo not given)	·	0.25
COC(=O)C1CCC(C(=O)O)C1(C)C (stereo not given)	-0.285	-0.45
COc1ccc(C)cc1-n1c(=O)c2ccccc2n2c(SCc3cc(=O)n4c(C)csc4n3)nnc12	·	2.1
COc1ccc(N2CCN(C(=O)OCc3cccc(Oc4ccc(Cl)cc4)c3)CC2C)cc1 (stereo not given)	0.175	·
CCCOc1ccc(-c2nc(N(CC)CC)c3ccccc3n2)cc1	0.335	-0.8
Cc1nc2ccccc2c2oc(C(=O)N3CCc4ccccc43)cc12	-0.71	-0.95
Cc1cccc(OCCn2c(NC(=O)c3cccc([N+](=O)[O-])c3)nc3ccccc32)c1	0.015	·
O=C(NNC(=O)C(Cc1ccccc1)NS(=O)(=O)c1ccc2c(c1)CN(C(=O)C(F)(F)F)CC2)OCc1ccccc1 (stereo not given)	0.345	·
O=C(CCSc1ccccc1)NCc1cccnc1	-0.22	1.4
Cc1ccc(Cn2c(C)c3cnn(CC(=O)NC(C)c4ccc5c(c4)OCCO5)c(=O)c3c2C)cc1 (stereo not given)	0.375	-0.2
CCc1c(C(=O)OC)c2cc(NS(C)(=O)=O)ccc2n1S(C)(=O)=O	·	-0.3
C#C[C@]1(O)CCC2C3CCC4=CC(=O)CC[C@@H]4C3CC[C@@]21C (stereo not given in full)	-0.315	0
CCOC(=O)c1cccc(Nc2c(C(=O)OCC)cnc3c(C)cc(C)cc23)c1	-0.215	·
CC(C)Oc1ccc(Cl)nn1	-0.345	-1
Cc1ccc(S(=O)(=O)N2CCCC2)c(C)c1	-0.755	0.1
CCCn1c(=O)c(/C(N)=N/O)nn(-c2ccccc2)c1=O	-1.27	-0.2
O=C(CCc1nnc2ccc(NCc3ccccc3)nn12)NCc1cccnc1	3.3	-0.05
O=C(O)COCC(=O)Nc1cnccn1	4	1.55
CC(=O)OC1(c2ccccc2)CCN(C2CCCCC2)CC1C (stereo not given)	-0.18	·
Cn1c2c(c(=O)n(C)c1=O)C(c1ccc(Cl)cc1Cl)C1C(=O)c3ccccc3C1=N2 (stereo not given)	-0.89	·
Cc1cc(C)n(CC(=O)NC23CC4CC(CC(C4)C2)C3)c(=O)c1C#N	·	0.25
O=C1CCCCC1Sc1nnc(C2CC2)n1Cc1ccccc1 (stereo not given)	·	1.05
COc1ccc(CNC(=O)c2n[nH]c(=O)c3ccccc23)cc1OC	0.93	-0.35
Nc1c(-c2ccccc2)c(-c2ccccc2)nn1Cc1ccccc1	-0.66	-1
CCOc1ccccc1NC(=O)C1=C(C)NC(=S)NC1c1c(OC)ccc2ccccc12 (stereo not given)	0.77	·
CCNc1ccc(S(=O)(=O)C(F)(F)F)cc1N	-0.505	-0.5
Cc1ccc(/C=C2\CCC/C(=C\c3ccc(C)s3)C2=O)s1	·	-0.55
CS(=O)(=O)c1cnc(-c2ccc(O)cc2)nc1-c1cccc(F)c1	-0.785	·
O=C(OCc1ccc(C#Cc2ccccc2)s1)N1CCC2(CC1)C(=O)NCN2c1ccccc1	-1.2	·
CC1CCc2c(sc3ncnc(NCCOCCO)c23)C1 (stereo not given)	·	2.2
CCCSc1ncccc1C(=O)Nc1cccc2nonc12	-0.575	0.85

Of the compounds above, these have fluorine:
SMILES	Ba CapD inh	AID504770
CCOC(=O)c1c[nH]c2c(F)cccc2c1=O	0.72	·
O=C(OC(C(=O)NCC1CCCO1)c1ccc(F)cc1)c1ccco1 (stereo not given)	·	0.1
Cc1ncc(CSc2nc3ccc(C(F)(F)F)cc3[nH]2)c(CO)c1O	5.88	-1.2
O=C(COC(=O)C1CCCN1C1=NS(=O)(=O)c2ccccc21)Nc1ccc(F)cc1 (stereo not given)	·	0.7
O=C(c1cnc2ccccn12)C(F)(F)SCc1c(Cl)cccc1Cl	-0.6	-0.95
COc1ccc(C(C#N)c2ccc(C(=O)c3ccc(F)cc3)cc2)cc1 (stereo not given)	-0.885	0.15
Cn1c(N/C(=C\C(=O)c2cccs2)C(F)(F)F)nc2ccccc21	-1.86	-2.7*
COc1ccc(C(=O)NNC(=O)C2CCN(c3ccc(C(F)(F)F)cn3)CC2)cc1	3.11	·
O=C(Nc1ccc2c(c1)OCCO2)N1C=CC(C(F)(F)F)=NCC1	-1.75	1.35
O=C1CNC(=O)N1Cc1ccc(F)cc1	·	1.6
O=C(CSc1cnccc1C(F)(F)F)NCCc1ccccc1	0.295	·
C=CCOC(=O)C1=C(C)OC(N)=C(C#N)C1c1ccc(F)cc1 (stereo not given)	0.225	·
COc1ccc(-c2cccc(NC(=O)C(F)(F)F)c2)nn1	·	-0.5
FC(F)(F)c1cnc(/C(=N/Nc2ccccc2)c2cccnc2)c(Cl)c1	-1.32	·
CC(C)(C)n1ncc(C(=O)O)c1C(F)(F)F	-0.005	1.3
O=C(NNC(=O)C(Cc1ccccc1)NS(=O)(=O)c1ccc2c(c1)CN(C(=O)C(F)(F)F)CC2)OCc1ccccc1 (stereo not given)	0.345	·
CCNc1ccc(S(=O)(=O)C(F)(F)F)cc1N	-0.505	-0.5
CS(=O)(=O)c1cnc(-c2ccc(O)cc2)nc1-c1cccc(F)c1	-0.785	·
